VDR inhibitor = vitamin D3 receptor (human) inhibition | P11473 | VDR-SRC2-3 peptide fluorescence polarization, 2 h | Potency, µM, for the others: max response, negative = inhibition, hits mostly inhibitors | 400,000 compounds, 0.93% hits; active = well fitted inhibition curve with a large enough effect; inconclusive = small, poorly fitted or top-dose-only effect, or another doubt; inactive = no such curve, though single readings can be large or run the other way; also: series mostly up to about 120 µM
Target sequence (P11473 whole entry, looked up): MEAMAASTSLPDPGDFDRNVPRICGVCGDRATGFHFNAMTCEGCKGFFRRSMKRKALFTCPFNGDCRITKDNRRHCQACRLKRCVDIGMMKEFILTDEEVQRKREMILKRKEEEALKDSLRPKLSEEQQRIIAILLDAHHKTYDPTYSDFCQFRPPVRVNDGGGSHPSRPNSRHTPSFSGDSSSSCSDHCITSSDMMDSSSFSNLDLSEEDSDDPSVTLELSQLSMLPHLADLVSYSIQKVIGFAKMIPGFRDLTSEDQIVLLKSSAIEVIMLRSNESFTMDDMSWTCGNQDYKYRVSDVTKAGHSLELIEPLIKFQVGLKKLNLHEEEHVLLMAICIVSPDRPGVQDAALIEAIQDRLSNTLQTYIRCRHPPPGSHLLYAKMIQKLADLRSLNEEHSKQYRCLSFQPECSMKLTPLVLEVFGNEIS
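Reagent solutions, kept cold and dark, are dispensed first; compounds are then pinned in at 23 nl, plates briefly spun, and incubated 2 h at ambient temperature. Inhibition of VDR–SRC2-3 peptide binding is read by fluorescence polarization.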
The depositor's hits bear a star; & = joins results of further samples. % is scaled to controls: 0 for no effect and ±100 for the full control effect; potency is read from the fitted curve at half-maximal effect.

For Cc1cccc(NC(=O)CSc2nnc(C)n2Cc2ccccc2)c1 the results were VDR inhibitor 19%.
O=C(O)c1ccccc1CSc1nc2ccccc2n1Cc1ccccc1C(=O)O was read as VDR inhibitor 1%.
Screening CCCCN(C(=O)c1ccc(N2CCCC2=O)cc1)c1c(N)n(CC(C)C)c(=O)[nH]c1=O returned VDR inhibitor -11%.
For CC(=O)Nc1sc(NC(=O)c2ccco2)nc1-c1cccs1 the results were VDR inhibitor -2%.
`CCOCCSc1nnc2nc(C)cc(C)n12` gave VDR inhibitor -10%.
Screening CCOc1ccc(NC(=O)Nc2ccc3c(c2)nnn3C)cc1 returned VDR inhibitor 10%.
COC(=O)c1c(C)[nH]c(C(=O)C(C)OC(=O)C2CC2)c1C (centres undefined) was read as VDR inhibitor -2%.
Screening CCCCCCSc1ccc([C@@H]2[C@@H]3C(=O)N(C)C(=O)[C@@H]3[C@]3(C(=O)OC)CCCCN23)cc1OC returned VDR inhibitor -4%.
Screening CCOC(=O)c1oc2ccccc2c1NC(=O)c1ccccc1OC returned VDR inhibitor 2%.
Cc1ccc(S(=O)(=O)N(CC(O)CN2CCCCC2)c2ccccc2)cc1 (centres undefined) was read as VDR inhibitor 2%.
`CC(NC(=O)c1ccc(F)cc1Cl)C1CC2CCC1C2` (centres undefined) gave VDR inhibitor 0%.
For C=C(C)c1cccc(C(C)(C)NC(=O)N2CCCC2)c1 the results were VDR inhibitor 12%.
Screening CC(C)(C)NC(=O)C1CC(=O)OC1(C)C (centres undefined) returned VDR inhibitor 3%.
`Cn1c(SCC(=O)c2ccc(F)cc2)ncc(C(=O)Nc2ccccc2)c1=O` gave VDR inhibitor -5%.
For O=C(c1ccco1)N1CCN(C(=O)C23CC4CC(CC(C4)C2)C3)CC1 the results were VDR inhibitor -3%.

Fetched by compound from the entries so far, 3 records:
`CC(NC(=O)c1ccc(F)cc1Cl)C1CC2CCC1C2` (centres undefined) gave VDR inhibitor 0%.
For C=C(C)c1cccc(C(C)(C)NC(=O)N2CCCC2)c1 the results were VDR inhibitor 12%.
For CC(=O)Nc1sc(NC(=O)c2ccco2)nc1-c1cccs1 the results were VDR inhibitor -2%.

Reprinted from the entries so far for reference:
`Cn1c(SCC(=O)c2ccc(F)cc2)ncc(C(=O)Nc2ccccc2)c1=O` gave VDR inhibitor -5%.
For O=C(c1ccco1)N1CCN(C(=O)C23CC4CC(CC(C4)C2)C3)CC1 the results were VDR inhibitor -3%.

(further entries)
For CCOC(=O)NC(=O)c1cn(Nc2ncc(C(F)(F)F)cc2Cl)c(=O)[nH]c1=O the results were VDR inhibitor -2%.
Screening CCC(=O)Nc1nnc(S(=O)(=O)N(CC(C)C)c2ccccc2)s1 returned VDR inhibitor -1%.
CNC(=O)c1ccc(NC(=O)C2CCN(S(=O)(=O)c3cccc(C(F)(F)F)c3)CC2)cc1 was read as VDR inhibitor -6%.
CCOc1cc(S(=O)(=O)N(CC)CC)c(OCC)cc1-n1cnnn1 was read as VDR inhibitor 2%.
`CC(=O)Nc1cccc(C(=O)OCC(=O)c2ccc(S(=O)(=O)N3CCCCC3)cc2)c1` gave VDR inhibitor -14%.
For COc1cc(-c2noc(C)c2/C=C/c2ccc(OC(C)=O)cc2)cc(OC)c1OC the results were VDR inhibitor -7%.
`Cc1cccc(N/C=C/C(=C(C#N)C#N)N(C)C)c1` gave VDR inhibitor -6%.
For Cc1oc(-c2ccccc2Cl)nc1CS(=O)(=O)CC(=O)NCc1ccc(F)cc1 the results were VDR inhibitor -11%.
For COc1cc(NC(=O)Cc2ccc(F)cc2)cc(OC)c1OC the results were VDR inhibitor 2%.
For COC(=O)c1ccc(Sc2ccc(F)cc2)c(N)c1 the results were VDR inhibitor -13%.
`O=C(OCCCCN1C(=O)c2ccccc2C1=O)c1ccc(S(=O)(=O)N2CCCC2)cc1` gave VDR inhibitor 0%.
COc1ccccc1N(C(=O)c1csnn1)C(C(=O)NC1CCCC1)c1ccccc1 (centres undefined) was read as VDR inhibitor -5%.
For CN(C)CCCN1c2ccc3ccccc3c2Sc2cccc(Cl)c21 the results were VDR inhibitor -20%.
`COc1ccc(C(=O)c2cn[nH]c2-c2cc(Cl)ccc2O)cc1` gave VDR inhibitor 5%.
Screening COc1ccccc1Nc1nc(N)nc(-c2cc3ccccc3o2)n1 returned VDR inhibitor -1%.
For CCc1ccc(NC2=CC(=O)CC(c3ccco3)C2)cc1 (centres undefined) the results were VDR inhibitor 13%.
Screening C[C@H](CO)N1C[C@H](C)[C@@H](CN(C)C(=O)Nc2ccccc2)Oc2c(NS(=O)(=O)c3ccc(F)cc3)cccc2C1=O returned VDR inhibitor 8%.
`O=C(CSc1nnnn1C1CCCCC1)Nc1ccc(F)cc1` gave VDR inhibitor -1%.
For Cc1ccc(NC(=O)Cc2nn(C)c(=O)c3ccccc23)cc1F the results were VDR inhibitor inconclusive.
Screening CCOC(=O)N1CCN(C(=O)/C(=C\c2ccc(SC)cc2)NC(=O)c2ccccc2)CC1 returned VDR inhibitor 8%.
Screening Cc1ccc(-c2nnc(Nc3ccccc3)c3ccccc23)cc1S(=O)(=O)NCC1CCCO1 (centres undefined) returned VDR inhibitor -9%.
Screening COc1ccc(NC(=O)COC(=O)Cn2cnc3ccccc32)cc1 returned VDR inhibitor -15%.
O=C(Nc1cccc(Cl)c1)Nc1ccccc1C(=O)NCc1ccco1 was read as VDR inhibitor 12%.
For Cc1ccc(OCc2nnc(SCC(=O)Nc3cccc4ccccc34)n2-c2ccccc2)cc1 the results were VDR inhibitor -8%.
For CCCCCc1nnc(NC(=O)c2ccc3nc[nH]c3c2)s1 the results were VDR inhibitor 18%.
For O=C(O)c1nn(Cc2ncc(-c3cccc(Cl)c3)o2)c(=O)c2ccccc12 the results were VDR inhibitor 5%.
`Cc1cccc(N2CCN(c3nc4ccccc4c4nc(-c5ccccc5)nn34)CC2)c1C` gave VDR inhibitor -4%.
For O=C(C1CC1)N1CCc2cc(S(=O)(=O)NCc3ccccc3)ccc21 the results were VDR inhibitor -12%.
For CCC(C)(C)C1CCc2c(sc(N)c2C(N)=O)C1 (centres undefined) the results were VDR inhibitor inconclusive.
Screening CC(C)c1ccc(NC(=O)c2ccc3c(c2)CCN3S(=O)(=O)c2ccccc2)cc1 returned VDR inhibitor 12%.

Ordered by molar mass (largest number first): part of the list above.
For Cc1ccc(OCc2nnc(SCC(=O)Nc3cccc4ccccc34)n2-c2ccccc2)cc1 the results were VDR inhibitor -8%.
`Cc1cccc(N2CCN(c3nc4ccccc4c4nc(-c5ccccc5)nn34)CC2)c1C` gave VDR inhibitor -4%.
For O=C(O)c1nn(Cc2ncc(-c3cccc(Cl)c3)o2)c(=O)c2ccccc12 the results were VDR inhibitor 5%.
`O=C(CSc1nnnn1C1CCCCC1)Nc1ccc(F)cc1` gave VDR inhibitor -1%.

Back to the main list with the 2 entries that preceded the break.
For CCC(C)(C)C1CCc2c(sc(N)c2C(N)=O)C1 (centres undefined) the results were VDR inhibitor inconclusive.
Screening CC(C)c1ccc(NC(=O)c2ccc3c(c2)CCN3S(=O)(=O)c2ccccc2)cc1 returned VDR inhibitor 12%.
`CCOC(=O)c1ccccc1NC(=O)Cn1cnc2c(cnn2C(C)(C)C)c1=O` gave VDR inhibitor 3%.
For O=C(Nc1cccc(C(F)(F)F)c1)OCc1ccncc1 the results were VDR inhibitor -12%.
Screening CC(Oc1ccccc1)C(=O)Nc1cccc(NC(=O)c2ccco2)c1 (centres undefined) returned VDR inhibitor 8%.
CSc1ccc(S(=O)(=O)NCc2ccccc2C)cc1 was read as VDR inhibitor 5%.
`CC(=NNC(=S)N1CC2CCC(CC2)C1)c1cnccn1` gave VDR inhibitor -23%.
For CC1CCN(Cc2nc(-c3ccccc3)no2)CC1 the results were VDR inhibitor -17%.
`COc1cc(/C=C/c2cc(C(=O)O)c3ccccc3n2)cc(OC)c1O` gave VDR inhibitor -3%.
COc1cccc(NC(=O)c2ccc3c(c2)C(=O)N(CC2CCCO2)C3=O)c1 (centres undefined) was read as VDR inhibitor 7%.
CCN(CC)S(=O)(=O)c1cccc(N=Nc2sc(N)nc2C)c1 was read as VDR inhibitor -18%.
For CC(NC(=O)Nc1cccc([N+](=O)[O-])c1)c1ccc2c(c1)OCO2 (centres undefined) the results were VDR inhibitor -3%.
Screening COc1ccc(NC2CCCN(C(=O)C3=NN(C)C(=O)CC3)C2)cc1OC (centres undefined) returned VDR inhibitor 11%.
For O=S(=O)(NCC1CC1)c1cccc(S(=O)(=O)N2CCCC2)c1 the results were VDR inhibitor -11%.
For CCc1nc2nc(C)c(NS(=O)(=O)c3ccc(F)cc3)c(=O)n2[nH]1 the results were VDR inhibitor -4%.
For CCC(=O)N1CCc2cc(Br)cc(S(=O)(=O)NCCc3ccc(OC)c(OC)c3)c21 the results were VDR inhibitor -12%.
Cc1ccc(CNC(=O)CCC(=O)N2CC(C)Sc3ccccc32)cc1 (centres undefined) was read as VDR inhibitor -17%&0%.
CC1(C)Cc2c(cnn2-c2ccc(F)cc2)C(NC(=O)CCN2CCCCO2)C1 (centres undefined) was read as VDR inhibitor -1%.
For COCCCNC(=O)Cn1cnc2sc(C)c(S(=O)(=O)N3CCC(C)CC3)c2c1=O the results were VDR inhibitor -5%.
For C/C(CC(=O)Nc1ccc(N(C)C)cc1)=N\NC(=O)c1ccc(F)cc1 the results were VDR inhibitor 11%.
`CC(C)Oc1ccc(C(=O)Nc2nnc(SCC(=O)N3CCOCC3)s2)cc1` gave VDR inhibitor -9%.
For COc1ccc(CNC(=O)[C@@H]2CCCN2C(=O)[C@@H]2Cc3ccccc3CN2C(=O)OC(C)(C)C)cc1 the results were VDR inhibitor 9%.
Screening C=CCSc1nc2c(c(=O)[nH]1)C(c1ccccc1)C(C#N)=C(N)O2 (centres undefined) returned VDR inhibitor 16%.
For CC1=NN(c2ccccc2)C(=O)/C1=C\C=C1\N(C)c2ccccc2C1(C)C the results were VDR inhibitor -8%.
COc1ccc(OC(C)c2nc3ccccc3[nH]2)cc1 (centres undefined) was read as VDR inhibitor 1%.
For CCOC(=O)CC1C(=O)NCCN1C(=O)COc1ccc(C(C)(C)C)cc1 (centres undefined) the results were VDR inhibitor 12%.
`Cc1c(Cl)cccc1-n1c(SCC(=O)N2CCC(C(=O)O)CC2)nc2ccccc2c1=O` gave VDR inhibitor -16%.
CC1CCCCN1C(=O)COc1ccccc1F (centres undefined) was read as VDR inhibitor 2%.
CCOC(=O)c1ccc(NC(=O)CCC(=O)N2CCSc3ccccc32)cc1 was read as VDR inhibitor -6%.
`COc1ccc(-c2nc3ccc(Cl)cn3c2NC2CCCCC2)cc1SC1CCCCC1` gave VDR inhibitor -4%.
CC(N)C12CC3CC(C1)CC(C(C)N)(C3)C2 (centres undefined) was read as VDR inhibitor -3%.
For COc1ccc(NC(=O)CSc2nc(N)c(-c3ccccc3)c(=O)[nH]2)cc1 the results were VDR inhibitor 10%.
`CS(=O)(=O)c1ccc2nc(NC(=O)c3cc4ccccc4o3)sc2c1` gave VDR inhibitor 5%.
CC1=C(C(N)=O)C(c2cccc(C)c2)n2nc(-c3ccc(Cl)cc3)nc2N1 (centres undefined) was read as VDR inhibitor -2%.
Screening Cc1cc2oc(=O)cc(CN3CCN(S(=O)(=O)/C=C/c4ccccc4)CC3)c2cc1C returned VDR inhibitor -10%.
For COc1cccc(CNC(=O)C2CCN(S(=O)(=O)c3cccc4cccnc34)CC2)c1 the results were VDR inhibitor 2%.
For COc1ccc(CC(=O)Nc2c(C(=O)Nc3ccccc3F)oc3ccccc23)cc1 the results were VDR inhibitor -8%.
CCc1ccccc1NC(=S)NC1CC2CCC(C1)N2Cc1ccc(F)cc1 (centres undefined) was read as VDR inhibitor -16%.
For O=C(Cn1c(=O)nc(-c2ccccc2)c2ccccc21)NCCc1ccccc1 the results were VDR inhibitor 14%.
For O=C(C1CCC(=O)N(C2CC2)C1)N1CCN(c2ccccc2Cl)CC1 (centres undefined) the results were VDR inhibitor -2%.
For CC(=O)N1CC(C)Sc2ccc(S(=O)(=O)N3CCCCC3)cc21 (centres undefined) the results were VDR inhibitor 6%.
Screening CC(Sc1nnc(Cn2c(=O)sc3ccccc32)n1C)c1ccccc1 (centres undefined) returned VDR inhibitor -15%.
Screening O=C(Nc1ccccc1C(=O)NCc1ccccc1)c1ccccc1Br returned VDR inhibitor -3%.
Screening CC(=O)c1ccccc1OCCOc1ccccc1C(C)=O returned VDR inhibitor -16%.
For COc1ccc(F)c(CN2CCCC(CNS(=O)(=O)c3cccc4cccnc34)C2)c1 (centres undefined) the results were VDR inhibitor 7%.
Screening Cc1ccc(NC(=O)c2ccc3oc(=O)c(S(=O)(=O)c4ccccc4)cc3c2)cc1C returned VDR inhibitor 0%.
`O=C(c1nc2ccccn2c1CNCC1OCCc2ccccc21)N1CCOCC1` (centres undefined) gave VDR inhibitor 11%.
Screening COc1cccc(CNCc2ccccc2Br)c1OC returned VDR inhibitor -2%.
`O=C(Cn1c(=O)n(Cc2ccc(C(=O)NCc3ccccc3Cl)cc2)c(=O)c2ccccc21)Nc1ccc(F)cc1` gave VDR inhibitor 6%.
Screening CCc1ccc(S(=O)(=O)N2CCN(C(=O)c3cccnc3)CC2)cc1 returned VDR inhibitor 3%.
`COc1cc(/C=N/Nc2nncn2/N=C/c2ccc(O)c(OC)c2)ccc1O` gave VDR inhibitor -9%.
For C=CCC(NC(C)c1ccccc1)c1ccco1 (centres undefined) the results were VDR inhibitor 13%.
Cc1cc(C)cc(Nc2ncnc3c2nc2n3CCCC2)c1 was read as VDR inhibitor 7%.
Screening COc1ccccc1CN1CC(C(=O)N2CCC(C(=O)c3ccccc3)CC2)CCC1=O (centres undefined) returned VDR inhibitor 6%.
CCCN(CC(=O)Nc1ccc(NC(C)=O)cc1)CC(=O)Nc1ccc(F)c(F)c1F was read as VDR inhibitor -4%.
`CCOc1ccc(N2C(=O)CC(n3nc(C)cc3C)C2=O)cc1` (centres undefined) gave VDR inhibitor 9%.
Screening CC1=C(C)CC(C(=O)NCCc2ccccc2)C(C(=O)O)C1 (centres undefined) returned VDR inhibitor -6%.

Assay outcomes as filed in PubChem BioAssay.

Some of the compounds tested; count on the stated rates, not on these rows.
